Bioassay records (PubChem BioAssay)
HTT prom inh: inhibits huntingtin promoter activity. HEK293 HTT promoter firefly luciferase reporter (activity 0% = vehicle and -100% = no light), 24 h. Potency, µM (series often up to 57.5 µM), for the others: at the highest dose activity change, negative = inhibition, most hits filed as inhibitors. hit rate 0.93% among 48,000. AID 1508623; active means well fitted inhibition curve with a large enough effect; inconclusive means small, poorly fitted or top-dose-only effect; inactive means no such curve, though single readings can be large or run the other way; further: nearly all actives have a fitted effect of over 50% in size
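Quantitative HTS used concentration series of up to 57.5 uM final on HEK293 luciferase reporter cells, 24 h at 37 degrees C. Readout was Dual-Glo firefly luminescence.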
PMP22 txn: modulators of PMP22 gene transcription in S16 Schwann cells; S16 Pmp22-F2sN Schwann cells (luciferase reporters placed in the Pmp22 gene), FLuc/NLuc coincidence luminescence, 24 h; Potency, µM (highest dose often 57.5 µM), for inactives: top-dose activity change, negative = inhibition, hits mostly inhibitors; hit rate 2% among 43,000; active = clear falling dose curves in both reporters; inconclusive = both reporters move, but less clearly or upward; inactive = either reporter flat; the % is the NLuc reporter signal; further: on the % scale 0 is the no-effect control and ±100 the full control effect; some results filed as inactive show a strong effect at the top dose
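Schwann cells carrying the coincidence reporter were exposed to library compounds for 24 h at 37C, then lysed and read for FLuc and, after quenching, NLuc luminescence on a CCD imager.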
* = called active by the depositor; [ ] = remark or other dose. Potency means the concentration at half of the fitted maximal effect.

CO[C@H]1C[C@@H]2CC[C@@H](C)[C@@](O)(O2)C(=O)C(=O)N2CCCC[C@@H]2C(=O)O[C@H]([C@H](C)C[C@@H]2CC[C@H](OP(C)(C)=O)[C@H](OC)C2)CC(=O)[C@H](C)C=C(C)[C@@H](O)[C@@H](OC)C(=O)[C@H](C)C[C@H](C)C=CC=CC=C1C was read as HTT prom inh -13.6%.
`CC(C)(C)c1ccc(S(=O)(=O)N2CCN(C(=O)c3cc(-c4ccc(Br)cc4)n[nH]3)CC2)cc1` gave HTT prom inh -1.6% and PMP22 txn inconclusive.
For O=C(NCc1ccccc1Cl)C1CCCN(S(=O)(=O)c2cccc3nsnc23)C1 (stereo not given) the results were HTT prom inh -16.5% and PMP22 txn inconclusive.
Screening CCc1ccccc1NC(=O)Cn1c(SCc2ccc(F)cc2)nc2ccncc21 returned HTT prom inh -1.2% and PMP22 txn inconclusive.
`CC(C)c1nc2n(n1)C1(CCCCC1)[C@@H]1CCCC[C@@H]1N2` gave HTT prom inh -1.2% and PMP22 txn -19.7%.
Screening COc1ccc(NC(=O)CSc2cc(-c3ccccc3)nc(C)n2)cc1 returned HTT prom inh -18.6% and PMP22 txn -3.5%.
For COCCNC(=O)c1ccc2c(c1)N(Cc1cc(C)ccc1C)C(=O)c1ccccc1S2=O (stereo not given) the results were HTT prom inh -19.4% and PMP22 txn inconclusive.
Screening O=C(NC1CC(=O)N(c2ccc(Cl)cc2)C1)C1CCCC1 (stereo not given) returned HTT prom inh 0.4% and PMP22 txn 22.1%.
`Cc1ccc(Cl)cc1NC(=O)Nc1cn(CC(C)C)c(=O)c2ccccc12` gave HTT prom inh -7.1% and PMP22 txn -104.7%.
For COC(=O)c1ccccc1NC(=O)CCn1c(=O)c2cccn2c2cccnc21 the results were HTT prom inh -3.2% and PMP22 txn -15.8%.
`Cc1cccc(C)c1NC(=O)Cn1cc(C(=O)C2CC2)c2ccccc21` gave HTT prom inh -16.3% and PMP22 txn -41.1%.
For CC(CC1c2ccccc2CCc2ccccc21)CN(C)C (stereo not given) the results were HTT prom inh -8.1%.
For CCCN1C(C(=O)c2ccccc2)=C(OC(=O)c2ccc(F)cc2)c2ccccc2S1(=O)=O the results were HTT prom inh inconclusive and PMP22 txn -63.7%.
COC(=O)c1scc(-c2ccc(C)cc2)c1S(=O)(=O)Nc1ccc(F)cc1F was read as HTT prom inh -25.7% and PMP22 txn 2.3%.
Nc1c(-c2nc(-c3cccs3)no2)nnn1-c1ccccc1Cl was read as HTT prom inh 53.7%[activator] and PMP22 txn -1.4%.
`Cc1ccc(C(=O)Nc2ccc3c(c2)n(C)c(=O)c(=O)n3C)cc1` gave HTT prom inh 6.6% and PMP22 txn -15.1%.
Screening COc1ccc(C)cc1NC(=O)Cn1c(=O)ccc2cc(S(=O)(=O)N3CCC(C)CC3)ccc21 returned HTT prom inh inconclusive and PMP22 txn inconclusive.
For CCOc1ccc(C(=O)N2CCc3cc(OC)c(OC)cc3C2COc2ccc3c(C)cc(=O)oc3c2)cc1OCC (stereo not given) the results were HTT prom inh -14.5% and PMP22 txn 13.4µM*.
`CC[C@H](C)C(=O)O[C@H]1C[C@H](O)C=C2C=C[C@H](C)[C@H](CC[C@@H](O)C[C@@H](O)CC(=O)O)[C@H]21` gave HTT prom inh 6.2%.
`O=C1[C@@H]2[C@H]3CC[C@H](C3)[C@@H]2C(=O)N1CCCCN1CCN(c2ncccn2)CC1` gave HTT prom inh -2.6%.

The closing 7 entries of the part above lead into the next.
COC(=O)c1scc(-c2ccc(C)cc2)c1S(=O)(=O)Nc1ccc(F)cc1F was read as HTT prom inh -25.7% and PMP22 txn 2.3%.
Nc1c(-c2nc(-c3cccs3)no2)nnn1-c1ccccc1Cl was read as HTT prom inh 53.7%[activator] and PMP22 txn -1.4%.
`Cc1ccc(C(=O)Nc2ccc3c(c2)n(C)c(=O)c(=O)n3C)cc1` gave HTT prom inh 6.6% and PMP22 txn -15.1%.
Screening COc1ccc(C)cc1NC(=O)Cn1c(=O)ccc2cc(S(=O)(=O)N3CCC(C)CC3)ccc21 returned HTT prom inh inconclusive and PMP22 txn inconclusive.
For CCOc1ccc(C(=O)N2CCc3cc(OC)c(OC)cc3C2COc2ccc3c(C)cc(=O)oc3c2)cc1OCC (stereo not given) the results were HTT prom inh -14.5% and PMP22 txn 13.4µM*.
`CC[C@H](C)C(=O)O[C@H]1C[C@H](O)C=C2C=C[C@H](C)[C@H](CC[C@@H](O)C[C@@H](O)CC(=O)O)[C@H]21` gave HTT prom inh 6.2%.
`O=C1[C@@H]2[C@H]3CC[C@H](C3)[C@@H]2C(=O)N1CCCCN1CCN(c2ncccn2)CC1` gave HTT prom inh -2.6%.
`Cn1c(C(=O)NCc2ccc(F)cc2)cc2cc(S(=O)(=O)N3CCCCC3)ccc21` gave HTT prom inh inconclusive and PMP22 txn inconclusive.
For CC(=O)N1CCc2c(sc3c2c(=O)n(Cc2ccccc2)c(=O)n3CC(=O)Nc2ccc(C)c(F)c2)C1 the results were HTT prom inh -24.1% and PMP22 txn inconclusive.
Screening COc1ccc(N(Cc2cccs2)C(=O)Nc2cccc(Cl)c2)cc1 returned HTT prom inh -15.1% and PMP22 txn 5.2%.
Cc1nc(-c2ccc(S(=O)(=O)NCc3ccc(OC(C)C)cc3)cc2)co1 was read as HTT prom inh inconclusive and PMP22 txn -22.0%.
`COc1ccc(C2CC(=O)Nc3cc4c(cc32)OCO4)c(OC)c1` (stereo not given) gave HTT prom inh inconclusive and PMP22 txn inconclusive.
Screening O=c1cc[nH]c(=S)[nH]1 returned HTT prom inh -4.5%.
Screening Cc1ccc(C)c(NC(=O)NCc2ccc3c(c2)CCN3C(=O)c2ccccc2)c1 returned HTT prom inh inconclusive and PMP22 txn 11.0%.
Screening Cc1ccc(Cl)cc1-n1nnc(-c2nsc(NC(=O)c3ccccc3Cl)n2)c1C returned HTT prom inh -29.0% and PMP22 txn 2.2%.
Screening COc1cc(NC(=O)CCc2c(C)nn(-c3ccc(N4CCOCC4)nn3)c2C)cc(OC)c1OC returned HTT prom inh -5.8% and PMP22 txn -53.7%.
`COc1ccccc1-c1cc(C(F)(F)F)nc(S(=O)(=O)CCCC(=O)Nc2ccc(F)c(Cl)c2)n1` gave HTT prom inh -3.4% and PMP22 txn -3.2%.
For Cc1nnc(NC(=O)CSCc2cc(=O)c3ccccc3[nH]2)s1 the results were HTT prom inh -0.6% and PMP22 txn -9.3%.
For CCn1c(=O)c2cc(C(=O)N(C)c3cc(Cl)c(OC)cc3OC)sc2c2ccccc21 the results were HTT prom inh -3.1% and PMP22 txn -31.8%.
For CCOc1ccc(N2CC(c3nc4ccccc4n3CCCOc3ccc(OC)cc3)CC2=O)cc1 (stereo not given) the results were HTT prom inh inconclusive and PMP22 txn inconclusive.
CC(=O)c1ccc(N2CCN(C(=O)c3cn(C)c(=O)c4c3c3ccccc3n4C)CC2)cc1 was read as HTT prom inh 19.0% and PMP22 txn -29.4%.
COc1ccc(C)cc1NC(=O)CSc1nc(=O)n(Cc2ccccn2)c2c1CCC2 was read as HTT prom inh -5.1% and PMP22 txn inconclusive.
Screening Cc1cccc2sc(N3CCN(C(=O)CS(=O)(=O)c4ccc(F)cc4)CC3)nc12 returned HTT prom inh inconclusive and PMP22 txn inconclusive.
N#Cc1ccccc1NC(=O)CSc1nc(-c2ccccc2)cc(C(F)(F)F)c1C#N was read as HTT prom inh -28.0% and PMP22 txn 1.1%.
`COc1cc(Cl)c(NS(=O)(=O)c2ccc(-c3coc(C)n3)cc2)c(OC)c1` gave HTT prom inh inconclusive and PMP22 txn 12.9µM*.
`Oc1c(C(c2ccccc2)N2CCC(O)CC2)sc2nc(-c3ccco3)nn12` (stereo not given) gave HTT prom inh -8.2% and PMP22 txn 11.7%.
Screening COc1ccc(OC)c(CNC(=O)Cc2ccc(NC(=O)N3CCCCc4ccccc43)cc2)c1 returned HTT prom inh inconclusive and PMP22 txn inconclusive.
COCCOC(=O)C1=C(C)NC(C)=C(C(=O)OC(C)C)C1c1cccc([N+](=O)[O-])c1 (stereo not given) was read as HTT prom inh -2.5%.
`Cc1oc2ccc(O)c(CN(C)Cc3ccccc3)c2c1C(=O)Nc1ccccc1` gave HTT prom inh -16.7% and PMP22 txn inconclusive.
For COc1ccc2c(c1)c(=O)c(S(=O)(=O)c1ccc(F)cc1)cn2Cc1ccccc1Cl the results were HTT prom inh -16.6% and PMP22 txn inconclusive.
Screening CN(C)CCNC(=O)CN1N=C(c2ccccc2)CCC1=O returned HTT prom inh 7.5% and PMP22 txn -6.7%.
Screening CCc1c(C)sc2c1CCN(Cc1ccc(F)cc1)C2c1ccccc1 (stereo not given) returned HTT prom inh inconclusive and PMP22 txn inconclusive.
For CCOC(=O)N1CCc2c(sc(NCc3sccc3C)c2C(=O)Nc2cc(Cl)ccc2OC)C1 the results were HTT prom inh -13.4% and PMP22 txn -18.1%.
For Cc1cccc(OCc2cc(=O)n3c4c(sc3n2)CCCC4)c1C the results were HTT prom inh -6.7% and PMP22 txn 8.2%.
`O=S(=O)(Nc1ccc(C(F)(F)F)cc1)c1ccc2c(c1)OCCO2` gave HTT prom inh inconclusive and PMP22 txn -51.8%.
Screening COCCNC(=O)Cn1cc(S(=O)(=O)Cc2ccccc2Cl)c2ccccc21 returned HTT prom inh 2.1% and PMP22 txn 0.3%.
For COc1ccc(-n2ncc3c(NC4CCCC4)ncnc32)cc1 the results were HTT prom inh -18.4% and PMP22 txn inconclusive.
For COc1cccc(C(=O)Nc2ccc3nc(SCCOc4ccccc4)sc3c2)c1 the results were HTT prom inh inconclusive and PMP22 txn -28.5%.
Cc1noc(C)c1S(=O)(=O)Nc1ccc(C(=O)Nc2ccc(Br)cc2)cc1 was read as HTT prom inh inconclusive and PMP22 txn 0.9%.
For CCCSc1nc(=O)c2c(n1C)NC(=O)CC2c1cccc(F)c1F (stereo not given) the results were HTT prom inh -11.4% and PMP22 txn inconclusive.
Screening CC(C)NC(=O)Nc1ccc2c(c1)N(C)C(=O)c1ccccc1S2 returned HTT prom inh 0.2% and PMP22 txn -17.4%.
Nc1c(C(=O)Nc2ccc(F)cc2)sc2nc(-c3cccs3)cc(C(F)(F)F)c12 was read as HTT prom inh -27.2% and PMP22 txn 3.3%.
For COc1ccccc1NC(=O)c1c(C)cc(C)nc1SCC(=O)Nc1ccc(C)cc1 the results were HTT prom inh inconclusive and PMP22 txn inconclusive.
`CCc1ccc(C(=O)c2cn(CC(=O)Nc3ccc4c(c3)OCCO4)c3ccc(CC)cc3c2=O)cc1` gave HTT prom inh -15.1% and PMP22 txn inconclusive.
CCc1cccc(NC(=O)Cn2ccn3nc(-c4ccc(OC)c(OC)c4)cc3c2=O)c1 was read as HTT prom inh -18.7% and PMP22 txn -5.5%.
COc1ccc(CCNCc2c(C(=O)O)c(C)n(Cc3ccccc3C)c2C)c(OC)c1 was read as HTT prom inh -21.0% and PMP22 txn -1.4%.
`CCc1cccc(C)c1NS(=O)(=O)c1cc2[nH]c(=O)c(=O)[nH]c2cc1C` gave HTT prom inh 3.5% and PMP22 txn -1.0%.
CCNC(=O)CC1C(=O)N(c2ccc(F)cc2)C(=O)N1CCOC (stereo not given) was read as HTT prom inh -11.3% and PMP22 txn -5.6%.
COc1ccc(CCNC(=O)C2CCN(S(=O)(=O)c3c(C)noc3/C=C/c3ccc(C)cc3)CC2)cc1OC was read as HTT prom inh -6.1% and PMP22 txn -7.4%.
`COCCn1ccc2c(OCC(=O)Nc3c(C)cc(C)cc3C)cccc2c1=O` gave HTT prom inh -11.7% and PMP22 txn -2.7%.
Screening CCOc1ccc(NC(=O)N(Cc2c[nH]c3ccccc23)C2CCCCC2)cc1 returned HTT prom inh 33.1%[activator] and PMP22 txn -19.3%.
`O=C(COc1ccccc1F)Nc1ccc(Cl)c(-c2nc3ccccc3[nH]2)c1` gave HTT prom inh 18.9% and PMP22 txn inconclusive.
Screening O=C1c2ccccc2C(=O)C1c1ccccc1 returned HTT prom inh 2.4%.
For COc1cc(NC(=O)N2CCN(c3cc(-c4noc(C)n4)ccc3C)CC2)cc(OC)c1OC the results were HTT prom inh -13.8% and PMP22 txn 14.0%.
`COc1ccccc1CNC(=O)CCC1N=C2c3ccccc3N=C(SCC(=O)Nc3ccc(F)cc3)N2C1=O` (stereo not given) gave HTT prom inh -4.1% and PMP22 txn inconclusive.
`O=S1(=O)c2ccccc2N(Cc2cccc(F)c2)c2ccccc21` gave HTT prom inh inconclusive and PMP22 txn -13.8%.
For Cc1nn(CC(=O)NC(C)c2ccccc2)c(=O)c2cc3occc3n12 (stereo not given) the results were HTT prom inh -10.3% and PMP22 txn 5.8%.
Cc1cc(-n2ccnc(NCCc3ccc(S(N)(=O)=O)cc3)c2=O)ccc1Br was read as HTT prom inh -47.4% and PMP22 txn inconclusive.
`CCN1C(=O)C2(c3ccccc31)c1c(oc3ccccc3c1=O)C(=O)N2CCOC` (stereo not given) gave HTT prom inh -18.9% and PMP22 txn -7.8%.
Screening Cc1ccc(C2c3[nH]c4ccccc4c3CCN2C(=O)CCc2ccccc2)cc1 (stereo not given) returned HTT prom inh inconclusive and PMP22 txn -14.7%.
For COc1ccc(N2CCN(C(=O)CSc3n[nH]c(-c4ccccc4)n3)CC2)cc1 the results were HTT prom inh -12.0% and PMP22 txn -100.5%.
